HIV Env fusion – inhibitors of HIV Env-mediated cell fusion; HeLa-JRFL Env/CEM21 cell fusion, luciferase; inhibition, % at 12.3 µM; AID 651610; 1.1% of 360,000 active;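 active = mean replicate inhibition score of at least 50 and every replicate individually at or above 50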;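 note: 0% = plate neutral controls and 100% = maraviroc near 300 nM; one replicate is shown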
UUG fidelity – modulators of start codon recognition fidelity in yeast | S. cerevisiae UUG-firefly luciferase reporter, luminescence/redox ratio | activity score, % at 18.7 µM | AID 602363 | 0.13% of 350,000 active;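 active = replicate mean at a twofold rise or more, about +100% in these data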;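 note: firefly luciferase made from a UUG start codon reports start codon fidelity; reporter light over untreated wells divided by growth signal over untreated wells; some hits fall short of that in this replicate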
The depositor's hits bear a star; [ ] = remark or other dose.

SMILES | HIV Env fusion | UUG fidelity
C[C@H](CO)N1C[C@H](C)[C@H](CN(C)C(=O)Nc2ccc3c(c2)OCO3)Oc2ccc(NC(=O)Nc3cccc4ccccc34)cc2C1=O | -21.0[16.7 µM] | -15.5
O=C(Cc1ccccn1)N[C@H]1CC[C@@H](CC(=O)N2CCCCC2)O[C@H]1CO | -3.8[16.7 µM] | -6.9
O=C(C[C@H]1CC[C@@H](NC(=O)CC2CC2)[C@H](CO)O1)NCc1ccc(-c2ccccc2)cc1 | 2.2[16.7 µM] | -21.4
COc1cccc(S(=O)(=O)N[C@H]2CC[C@H](CCNC(=O)Cc3ccncc3)O[C@H]2CO)c1 | -6.0[16.7 µM] | -3.6
CCC(=O)N(C)C[C@H]1Oc2cc(-c3ccccc3F)ccc2S(=O)(=O)N([C@@H](C)CO)C[C@@H]1C | 7.5[16.7 µM] | 7.6
C[C@H](O)C#Cc1cnc2c(c1)C(=O)N([C@@H](C)CO)C[C@@H](C)[C@@H](CN(C)Cc1cccc(C(=O)O)c1)O2 | -9.0[16.7 µM] | -2.3
C[C@@H]1CN([C@H](C)CO)C(=O)c2cc(/C=C/c3ccccc3)cnc2O[C@@H]1CN(C)Cc1ccccc1F | -3.6[16.7 µM] | 2.7
CN(C)CC(=O)Nc1ccc2c(c1)[C@@H]1C[C@@H](CC(=O)NCC3CC3)O[C@H](CO)[C@@H]1O2 | -2.1[16.7 µM] | 3.9
N#C[C@H]1N[C@H](CO)[C@H]1c1ccc(-c2ccccc2F)cc1 | 31.6[16.7 µM] | -3.8
CC(C)C(=O)Nc1ccc2c(c1)C(=O)N(C)[C@@H]1CC[C@@H](CC(=O)NCc3cccc(F)c3)O[C@@H]1CO2 | 1.3[16.7 µM] | 14.9
COc1ccc(CN(C)C[C@H]2OCCCC[C@H](C)Oc3ccc(NS(C)(=O)=O)cc3C(=O)N([C@@H](C)CO)C[C@@H]2C)cc1 | 2.9[16.7 µM] | 22.1
CNC[C@@H]1OCCCC[C@H](C)Oc2ccc(NS(=O)(=O)c3cn(C)cn3)cc2C(=O)N([C@@H](C)CO)C[C@@H]1C | -1.8[16.7 µM] | -2.9
CO[C@@H]1CN(C)C(=O)c2cc(NS(C)(=O)=O)ccc2OC[C@H](C)N(Cc2ccccc2)C[C@@H]1C | 3.7[16.7 µM] | 1.4
O=C(Nc1ccccc1F)N[C@H]1CC[C@H](CCNC(=O)C2CCCC2)O[C@H]1CO | -5.0[16.7 µM] | -0.5
COCC(=O)N(C)C[C@H]1Oc2ncc(C#CC3(O)CCCC3)cc2C(=O)N([C@@H](C)CO)C[C@@H]1C | 14.7[16.7 µM] | -8.1
C[C@H](CO)N1C[C@H](C)[C@H](CN(C)S(=O)(=O)c2ccc(Cl)cc2)OCCCC[C@H](C)Oc2ccc(NC(=O)c3ccncc3)cc2C1=O | -17.5[16.7 µM] | -7.9
O=C(N[C@H]1CC[C@@H](CCNS(=O)(=O)Cc2ccccc2)O[C@@H]1CO)c1ccc2c(c1)OCO2 | -4.2[16.7 µM] | 11.3
COc1ccc(NC(=O)Nc2cccc3c2O[C@@H](CN(C)C(=O)Nc2ccc(OC)cc2)[C@H](C)CN([C@H](C)CO)C3=O)cc1 | -24.6[16.7 µM] | 12.1
C[C@@H]1CN([C@@H](C)CO)C(=O)c2cccc(NC(=O)c3ccc(-c4nccs4)cc3)c2O[C@@H]1CN(C)S(=O)(=O)c1ccc(Cl)cc1 | 3.6[16.7 µM] | -6.5
O=C(C[C@@H]1C[C@H]2c3cc(NC(=O)NC4CCCC4)ccc3O[C@H]2[C@@H](CO)O1)NCc1cccc(F)c1 | -8.5[16.7 µM] | 0.6
C[C@H]1CN([C@@H](C)CO)C(=O)c2cc(C#CC3CCCCC3)cnc2O[C@H]1CN(C)C | 26.9[16.7 µM] | 3.5
Cc1ccc(S(=O)(=O)N(C)C[C@H]2Oc3ccc(NC(=O)C4CCCCC4)cc3C(=O)N([C@@H](C)CO)C[C@@H]2C)cc1 | 9.4[16.7 µM] | -0.4
Cc1ccc(S(=O)(=O)N(C)C[C@@H]2Oc3ccc(NC(=O)Nc4ccc5c(c4)OCO5)cc3CC(=O)N([C@H](C)CO)C[C@H]2C)cc1 | 12.8[16.7 µM] | -13.0
COCC#Cc1cnc2c(c1)C(=O)N([C@@H](C)CO)C[C@H](C)[C@@H](CN(C)C(=O)Nc1ccccc1F)O2 | -10.5[16.7 µM] | 13.0
COc1ccc(-c2ccc([C@H]3[C@@H](C#N)N(C(=O)c4cccnc4)[C@@H]3CO)cc2)cc1 | 23.5[16.7 µM] | -15.4
C[C@H]1CN([C@@H](C)CO)C(=O)c2cc(NS(=O)(=O)c3cccs3)ccc2O[C@H]1CN(C)C(=O)Nc1ccc(F)cc1 | 13.2[16.7 µM] | -2.3
CCCNC(=O)N(C)C[C@H]1Oc2cc(C#CC(C)C)ccc2S(=O)(=O)N([C@@H](C)CO)C[C@H]1C | -35.0[16.7 µM] | -1.4
O=C(C[C@H]1C=C[C@@H](NC(=O)Cc2cccnc2)[C@H](CO)O1)NCc1ccc2c(c1)OCO2 | 3.1[16.7 µM] | -9.4
COCC(=O)Nc1ccc2c(c1)OC[C@@H](C)N(CCC(F)(F)F)C[C@@H](C)[C@H](OC)CN(C)C2=O | -9.5[16.7 µM] | 6.3
Cc1cc(C)cc(N2C(=O)CS(=O)(=O)C2c2cccc([N+](=O)[O-])c2)c1 (stereo not drawn) | 4.2[16.7 µM] | -12.5
N#C[C@H]1[C@H](c2ccc(-c3ccccc3F)cc2)[C@H](CO)N1C(=O)C1CC1 | -14.0[16.7 µM] | 5.6
CC(C)NC(=O)Nc1ccc2c(c1)C(=O)N([C@@H](C)CO)C[C@@H](C)[C@@H](CN(C)S(=O)(=O)c1cn(C)cn1)OCCCC[C@H](C)O2 | 1.8[16.7 µM] | 0.6
Cc1ccc(S(=O)(=O)N(C)C[C@H]2Oc3c(NC(=O)c4ccc(-c5nccs5)cc4)cccc3C(=O)N([C@H](C)CO)C[C@@H]2C)cc1 | 0.1[16.7 µM] | 4.7
CO[C@@H]1CN(C)C(=O)c2ccc(NC(=O)c3cc(C)on3)cc2OC[C@@H](C)N(C(C)=O)C[C@@H]1C | -7.8[16.7 µM] | -6.0
COCCNC(=O)C[C@@H]1C[C@@H]2c3cc(NC(=O)c4ccc5c(c4)OCO5)ccc3O[C@@H]2[C@H](CO)O1 | -6.4[16.7 µM] | -0.2
C[C@@H]1CN([C@@H](C)CO)C(=O)c2cc(-c3ccc(F)cc3)cnc2O[C@H]1CN(C)S(C)(=O)=O | 8.1[16.7 µM] | 13.9
Cc1ccc(S(=O)(=O)N(C)C[C@@H]2OCCCC[C@H](C)Oc3ccc(NC(=O)Nc4ccc5c(c4)OCO5)cc3C(=O)N([C@@H](C)CO)C[C@H]2C)cc1 | 42.9[16.7 µM] | -3.5
COc1ccc(CN(C)C[C@H]2Oc3ccc(NC(=O)CCC(F)(F)F)cc3CC(=O)N([C@@H](C)CO)C[C@H]2C)cc1 | -21.2[16.7 µM] | -3.7
C[C@H](O)C#Cc1ccc2c(c1)O[C@@H](CN(C)CC1CCOCC1)[C@H](C)CN([C@H](C)CO)S2(=O)=O | -2.4[16.7 µM] | 8.3
Cc1noc(C)c1NC(=O)Nc1ccc2c(c1)C(=O)N([C@@H](C)CO)C[C@H](C)[C@@H](CN(C)C(=O)Nc1c(C)noc1C)O2 | -11.0[16.7 µM] | -1.2
Cc1noc(C)c1S(=O)(=O)Nc1ccc2c(c1)C(=O)N([C@H](C)CO)C[C@H](C)[C@H](CN(C)CC1CCCCC1)OCCCC[C@@H](C)O2 | -5.5[16.7 µM] | 1.5
C[C@H]1CN([C@@H](C)CO)C(=O)c2cc(C#Cc3ccccn3)cnc2O[C@H]1CN(C)Cc1cccnc1 | -2.3[16.7 µM] | -9.1
C[C@@H]1CN([C@@H](C)CO)C(=O)c2cccc(NC(=O)Nc3ccccc3)c2O[C@@H]1CN(C)C(=O)Nc1ccccc1 | -23.4[16.7 µM] | 1.2
C[C@H]1CN([C@@H](C)CO)C(=O)c2cc(NS(=O)(=O)c3ccc(F)cc3)ccc2O[C@H]1CN(C)Cc1ccccc1 | -5.0[16.7 µM] | 1.6
NCC[C@H]1CC[C@@H](NC(=O)C2CCC2)[C@@H](CO)O1 | 41.2[16.7 µM] | 1.7

Twelve structures already listed, ordered by molecular weight, low to high:
SMILES | HIV Env fusion | UUG fidelity
N#C[C@H]1[C@H](c2ccc(-c3ccccc3F)cc2)[C@H](CO)N1C(=O)C1CC1 | -14.0[16.7 µM] | 5.6
C[C@@H]1CN([C@@H](C)CO)C(=O)c2cc(-c3ccc(F)cc3)cnc2O[C@H]1CN(C)S(C)(=O)=O | 8.1[16.7 µM] | 13.9
CO[C@@H]1CN(C)C(=O)c2ccc(NC(=O)c3cc(C)on3)cc2OC[C@@H](C)N(C(C)=O)C[C@@H]1C | -7.8[16.7 µM] | -6.0
C[C@H]1CN([C@@H](C)CO)C(=O)c2cc(C#Cc3ccccn3)cnc2O[C@H]1CN(C)Cc1cccnc1 | -2.3[16.7 µM] | -9.1
C[C@H](O)C#Cc1ccc2c(c1)O[C@@H](CN(C)CC1CCOCC1)[C@H](C)CN([C@H](C)CO)S2(=O)=O | -2.4[16.7 µM] | 8.3
C[C@@H]1CN([C@@H](C)CO)C(=O)c2cccc(NC(=O)Nc3ccccc3)c2O[C@@H]1CN(C)C(=O)Nc1ccccc1 | -23.4[16.7 µM] | 1.2
C[C@H]1CN([C@@H](C)CO)C(=O)c2cc(NS(=O)(=O)c3ccc(F)cc3)ccc2O[C@H]1CN(C)Cc1ccccc1 | -5.0[16.7 µM] | 1.6
COc1ccc(CN(C)C[C@H]2Oc3ccc(NC(=O)CCC(F)(F)F)cc3CC(=O)N([C@@H](C)CO)C[C@H]2C)cc1 | -21.2[16.7 µM] | -3.7
Cc1noc(C)c1NC(=O)Nc1ccc2c(c1)C(=O)N([C@@H](C)CO)C[C@H](C)[C@@H](CN(C)C(=O)Nc1c(C)noc1C)O2 | -11.0[16.7 µM] | -1.2
CC(C)NC(=O)Nc1ccc2c(c1)C(=O)N([C@@H](C)CO)C[C@@H](C)[C@@H](CN(C)S(=O)(=O)c1cn(C)cn1)OCCCC[C@H](C)O2 | 1.8[16.7 µM] | 0.6
Cc1ccc(S(=O)(=O)N(C)C[C@H]2Oc3c(NC(=O)c4ccc(-c5nccs5)cc4)cccc3C(=O)N([C@H](C)CO)C[C@@H]2C)cc1 | 0.1[16.7 µM] | 4.7
Cc1noc(C)c1S(=O)(=O)Nc1ccc2c(c1)C(=O)N([C@H](C)CO)C[C@H](C)[C@H](CN(C)CC1CCCCC1)OCCCC[C@@H](C)O2 | -5.5[16.7 µM] | 1.5

(cont.)
SMILES | HIV Env fusion | UUG fidelity
C[C@H]1CN([C@@H](C)CO)S(=O)(=O)c2ccc(C#Cc3ccncc3)cc2O[C@@H]1CN(C)C(=O)C1CCOCC1 | 11.2[16.7 µM] | -4.5
C[C@@H]1CN([C@@H](C)CO)C(=O)c2cccc(NC(=O)C3CCOCC3)c2O[C@@H]1CN(C)S(=O)(=O)c1ccc(F)cc1 | -23.0[16.7 µM] | 5.7
CC(C)NC(=O)Nc1ccc2c(c1)C(=O)N([C@@H](C)CO)C[C@@H](C)[C@H](CN(C)S(=O)(=O)c1ccc(Cl)cc1)OCCCC[C@@H](C)O2 | -19.3[16.7 µM] | 0.3
CN(C)CCCNC(=O)C[C@H]1C=C[C@H](NS(=O)(=O)c2ccc(F)cc2)[C@H](CO)O1 | -10.8[16.7 µM] | -2.4
C[C@H](O)C#Cc1ccc2c(c1)O[C@@H](CN(C)Cc1ccncc1)[C@H](C)CN([C@H](C)CO)S2(=O)=O | 7.3[16.7 µM] | -0.1
C[C@@H]1CN([C@H](C)CO)C(=O)c2cc(NC(=O)C3CCCCC3)ccc2O[C@H]1CN(C)S(C)(=O)=O | 0.9[16.7 µM] | 5.5
CC(C)NC(=O)N[C@H]1CC[C@@H](CC(=O)NC2Cc3ccccc3C2)O[C@H]1CO | 1.3[16.7 µM] | -8.5
O=C(C[C@@H]1CC[C@@H](NC(=O)Nc2ccc(F)cc2)[C@@H](CO)O1)NCCN1CCCC1 | 2.5[16.7 µM] | 19.7
C[C@@H]1CN([C@@H](C)CO)S(=O)(=O)c2ccc(-c3ccccc3)cc2O[C@H]1CN(C)Cc1ccncc1 | 34.7[16.7 µM] | -0.3
C[C@@H]1CN([C@@H](C)CO)C(=O)c2cc(NC(=O)Nc3cccc4ccccc34)ccc2O[C@H]1CN(C)C(=O)NC1CCCCC1 | -17.0[16.7 µM] | -5.6
C[C@@H]1CN([C@H](C)CO)S(=O)(=O)c2ccc(Br)cc2O[C@@H]1CN(C)Cc1cncnc1 | -25.8[16.7 µM] | 22.7
C[C@@H]1CN([C@@H](C)CO)C(=O)c2cc(-c3cccc(C#N)c3)cnc2O[C@H]1CN(C)C(=O)c1cnccn1 | -11.4[16.7 µM] | -1.7

From PubChem

Only part of the results is shown, so the mix of outcomes need not match the whole.
